B2AR ag – beta2AR agonists driving receptor internalization, primary screen, cell-based, FAP fluorogen, flow cytometry; Beta-2 adrenergic receptor (Homo sapiens), P07550; Am2.2-beta2AR cells; reference of the scale not given here; response, % (no concentration beside the values); 0.43% of 340,000 active; AID 504454, 2011;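 active means response above a set limit, near 3 SD of response in nonfluorescent compounds, cut at about 42% in these data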;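 further: stock transfer was 100 nL into about 11 µL; a reference agonist was the positive control; negative values mostly stem from fluorescent compounds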
E coli growth – E. coli growth inhibition, primary screen, OD600. OD600 absorbance (concentration not given with the values). Escherichia coli growth, 23 h; active compounds read low. 0.21% of 330,000 active. AID 1053175, 2014;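 active means OD600 absorbance below the run mean of sample wells minus 3.6 SD, in any replicate, cut at about 0.56 in these data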;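 further: stock transfer was 300 nL into about 60 µL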
FGF22 binding – binders of human FGF22 protein, primary screen, FGF22 synaptogenesis inhibitor project, biophysical, thermal shift, single point. Fibroblast growth factor 22 (Homo sapiens), Q9HCT0. recombinant FGF22 thermal shift, SYPRO orange fluorescence; percent of sucrose octasulfate shift, DMSO zero. calls only at 9.99 µM. 1.5% of 340,000 active. AID 651658, 2012;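 active means melting point raised past a set limit in the mean and every replicate; inconclusive means no clear call; three in four hits are not shown here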
UCH37 DUB inh – inhibitors of human UCH37 deubiquitinase, primary screen, biochemical, Ub-AMC cleavage, fluorescence; AID 588478, 2011; Ubiquitin carboxyl-terminal hydrolase isozyme L5 (Homo sapiens), Q9Y5K5; inhibition, % (no concentration beside the values); 0.33% of 330,000 active; purified proteasome/UCH37;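 active means mean of two replicates above 20%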;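 further: 0% = compound-free wells with enzyme and 100% = wells lacking proteasome; stock transfer was 100 nL into about 20 µL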
Target sequence (Q9Y5K5 whole entry, looked up): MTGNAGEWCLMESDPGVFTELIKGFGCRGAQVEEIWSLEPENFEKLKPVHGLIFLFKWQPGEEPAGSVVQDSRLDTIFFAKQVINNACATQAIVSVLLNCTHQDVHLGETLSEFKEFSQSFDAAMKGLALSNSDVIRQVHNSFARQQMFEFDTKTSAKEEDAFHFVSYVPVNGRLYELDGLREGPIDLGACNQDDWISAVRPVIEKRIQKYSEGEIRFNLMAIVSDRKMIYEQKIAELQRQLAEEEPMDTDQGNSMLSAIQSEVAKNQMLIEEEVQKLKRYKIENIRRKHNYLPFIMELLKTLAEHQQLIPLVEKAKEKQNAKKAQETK
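Material: human UCH37 enzyme supplied as purified proteasome complex / Amount: 0.15 nM proteasome as dispensed / Buffer or medium: pH 7.4 Tris-HCl (50 mM) with ovalbumin, ATP-MgCl2, DTT / Times: preincubation 30 min, reaction 25 min, room temperature / Technique: AMC fluorescence from Ub-AMC cleavage, excitation 355 nm, emission 460 nm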
ALR inh – inhibitors of human ALR sulfhydryl oxidase, primary screen, biochemical, H2O2 detection, HRP-luminol luminescence, single point; AID 485317, 2010; 3.8% of 290,000 active; FAD-linked sulfhydryl oxidase ALR (Homo sapiens), P55789; inhibition, % (test concentration not listed); purified ALR, DTT oxidation;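 active means mean and each replicate at 75% or more; inconclusive means only one of the two met; inactive means neither met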;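 further: stock transfer was 7.5 nL into about 7.5 µL; 0% = neutral wells and 100% = wells with inactivated enzyme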
Target sequence (P55789 whole entry, looked up): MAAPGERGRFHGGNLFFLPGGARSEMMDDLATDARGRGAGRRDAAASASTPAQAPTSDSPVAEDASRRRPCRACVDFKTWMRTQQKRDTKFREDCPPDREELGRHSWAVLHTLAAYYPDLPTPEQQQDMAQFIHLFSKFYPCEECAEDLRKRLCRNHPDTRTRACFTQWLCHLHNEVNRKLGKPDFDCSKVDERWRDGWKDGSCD
HNF4A DNA FP – change in binding of human HNF4A to DNA, primary screen, biochemical, fluorescence polarization, FITC-DNA. 1 h. activity change, % at 10 µM. 0.3% of 360,000 active; in the data active means activity change above about 30%, passing the limit was not always enough;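 further: controls were the assay level and a saturating level of protein; the project sought stronger binding though the title names inhibitors; some compounds called inactive have numbers as strong as hits; positive values seem to mean higher polarization but the record does not say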
Target sequence (P41235 whole entry, looked up): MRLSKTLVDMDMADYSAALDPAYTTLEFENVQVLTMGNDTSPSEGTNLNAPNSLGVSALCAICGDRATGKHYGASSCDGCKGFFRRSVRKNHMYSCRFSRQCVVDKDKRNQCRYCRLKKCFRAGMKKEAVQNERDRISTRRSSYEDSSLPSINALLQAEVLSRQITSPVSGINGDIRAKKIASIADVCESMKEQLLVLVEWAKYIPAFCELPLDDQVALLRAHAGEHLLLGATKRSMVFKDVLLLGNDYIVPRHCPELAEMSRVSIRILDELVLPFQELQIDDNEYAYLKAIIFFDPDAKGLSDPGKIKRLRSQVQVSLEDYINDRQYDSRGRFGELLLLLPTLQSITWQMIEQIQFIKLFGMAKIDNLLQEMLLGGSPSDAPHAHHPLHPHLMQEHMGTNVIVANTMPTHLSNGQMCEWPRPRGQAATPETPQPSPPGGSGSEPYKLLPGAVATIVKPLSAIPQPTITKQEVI
LANA-H2B inh – blockers of LANA interaction with H2A/H2B – biochemical, FP readout, HTS, primary screen | Protein LANA1 (Human herpesvirus 8 type P (isolate GK18)), Q9QR71 | cell-free LANA-H2A/H2B peptide, fluorescence polarization | inhibition, % (no concentration beside the values) | 0.6% of 320,000 active | AID 2629, 2010; in the data active means inhibition mostly above about 10%, no sharp cut-off; inactive means mostly below about 6.7%;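 further: stock transfer was 7.5 nL into about 10 µL; 0% = median of vehicle wells and 100% = median of positive control wells; one replicate is shown; the record names a cut of 25% in any replicate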
Starred values were filed as active, the others as inactive; i = inactive; ? = inconclusive; · = not tested or not shown; & = joins results of further samples. A portion of the library, so the mix of outcomes need not match the whole.

Values run as follows: B2AR ag, E coli growth, FGF22 binding, UCH37 DUB inh, ALR inh, HNF4A DNA FP, LANA-H2B inh
CC(=O)Oc1ccc(C(=O)Nc2ccccc2NC(=O)c2ccc(OC(C)=O)cc2)cc1
→ 8, 0.64, i, 1.9, 6, -4.9, 1.5
Cc1cnn(C(=O)c2ccccc2Br)c1
→ ·, 0.66, i, 0.4, -8, ·, -5.3
O=C(CCCCl)N1CCc2[nH]c3ccccc3c2C1
→ 2, 0.69, i, 3.9, ·, 6.9, ·
COc1ccccc1-c1cnn2c(N3CCOCC3)cc(C)nc12
→ -3, 0.7, i, -25, 17, 0.5, 4.2
O=C1CC2c3ccccc3C1C1C(=O)N(Cc3ccccc3)C(=O)C21 (stereo unspecified)
→ -4, 0.73, i, 0.1, 17, 0.2, 0.4
Cc1nc2c(C(=O)NCc3ccccc3Cl)c[nH]n2c(=O)c1Cl
→ -2, 0.71, i, -2.2, ·, -2.6, -2.0
CC1CC(C)(C)CC2(C1)NC(=O)N(CC(=O)N1CCN(S(=O)(=O)c3cccs3)CC1)C2=O (stereo unspecified)
→ -2, 0.69, i, 0.7, 1, -0.1, -3.6
COc1cc(CNc2nc3ccccc3n2C)cc(OC)c1OC
→ 1, 0.72, ·, 5.1, 24, 1.2, -1.8
COC(C[C@H](O)C[C@H](O)[C@H](C)OCc1ccccc1)OC
→ 0, ·, i, -0.5, -1, 1.0, -1.3
Cc1ccnc(SCCn2c(N3CC(C)CC(C)C3)nc3c2c(=O)n(C)c(=O)n3C)n1 (stereo unspecified)
→ -9, 0.7, ·, 1.3, -5, 0.2, -1.5

Some of the entries so far, tab-delimited:
molecule	B2AR ag	E coli growth	FGF22 binding	UCH37 DUB inh	ALR inh	HNF4A DNA FP	LANA-H2B inh
O=C(CCCCl)N1CCc2[nH]c3ccccc3c2C1	2	0.69	i	3.9	·	6.9	·
COc1cc(CNc2nc3ccccc3n2C)cc(OC)c1OC	1	0.72	·	5.1	24	1.2	-1.8
CC1CC(C)(C)CC2(C1)NC(=O)N(CC(=O)N1CCN(S(=O)(=O)c3cccs3)CC1)C2=O (stereo unspecified)	-2	0.69	i	0.7	1	-0.1	-3.6
Cc1ccnc(SCCn2c(N3CC(C)CC(C)C3)nc3c2c(=O)n(C)c(=O)n3C)n1 (stereo unspecified)	-9	0.7	·	1.3	-5	0.2	-1.5
CC(=O)Oc1ccc(C(=O)Nc2ccccc2NC(=O)c2ccc(OC(C)=O)cc2)cc1	8	0.64	i	1.9	6	-4.9	1.5

Later entries.
Values run as follows: B2AR ag, E coli growth, FGF22 binding, UCH37 DUB inh, ALR inh, HNF4A DNA FP, LANA-H2B inh
Cc1ccc(C(=O)N2CCC(n3nccc3NC(=O)c3ccccc3C)CC2)cn1
→ -5, 0.72, i, -0.1, -6, 1.2, 10
O=C(Cc1c[nH]c2ccccc12)NCc1ccc2c(c1)OCO2
→ 3, 0.62, ·, 3.5, -1, -0.4, -2.3
c1ccc2c(c1)oc1c(NCC3CCCO3)ncnc12 (stereo unspecified)
→ -1, 0.68, ·, 6.3, -13, -2.5, 1.5
CC(NC(=O)c1cc(S(=O)(=O)N(C)C)ccc1N1CCCC1)C1CC2CCC1C2 (stereo unspecified)
→ -5, 0.71, i, 1.0, ·, -1.7, ·
O=C(COc1ccc(C(=S)N2CCOCC2)cc1Cl)Nc1ccccc1Cl
→ 1, 0.71, i, 2.6, -3, -4.6, 0.6
C[C@H](CO)N1C[C@H](C)[C@@H](CN(C)S(C)(=O)=O)Oc2ccc(NC(=O)Cn3cnnn3)cc2C1=O
→ -8, 0.72, i, 5.2, ·, 3.8, 1.5
COc1ccc(/C=C(\C#N)C(=O)N=CN(C)C)cc1
→ 11, 0.64, i, 12, 72, 2.8, 11
S=c1nc(NCc2cccc(Cl)c2)c2ccccc2[nH]1
→ -7, 0.62, i, 5.3, ·, -1.2, 4.1
CC(OC(=O)c1cccc(S(=O)(=O)N2CCCCC2)c1)C(=O)NC1CCCCC1C (stereo unspecified)
→ 2, 0.7, i, 0.4, -4, -1.7, 0.8
COc1ccc(/C=C/C(=O)Oc2cc(O)cc(O)c2)cc1
→ -2, ·, i, ·, ·, 2.2, 4.0

The list continues.
Values run as follows: B2AR ag, E coli growth, FGF22 binding, UCH37 DUB inh, ALR inh, HNF4A DNA FP, LANA-H2B inh
Cc1ccc(N(C)S(=O)(=O)c2cccc(C(=O)NC3CC(C)(C)NC(C)(C)C3)c2)cc1
→ 0, 0.65, i, 1.8, -89, 4.2, -9.2
CC(=O)COc1ccc2c(c1C)O/C(=C\c1ccco1)C2=O
→ -5, 0.67, i, -1.1, -2, 0.5, 0.9
C=CCNC(=O)COc1cc(C)cc(C)c1C
→ 4, 0.69, i, -1.0, -2, -1.1, 0.8
COc1cccc(NC(=O)C2C3C=CC(O3)C2C(=O)O)c1 (stereo unspecified)
→ 1, ·, i, ·, -23, -3.3, -4.7
CC(C)(C)C(=O)N1CCN(CCN2C(=O)c3cccc4cccc(c34)C2=O)CC1
→ 0, 0.63, i, -3.4, -6, -0.5, -6.8
CCN(CC)CCN1C(=O)C(=O)/C(=C(/O)c2ccc(S(=O)(=O)N3CCOCC3)cc2)C1c1ccc(Cl)cc1 (stereo unspecified)
→ 7, 0.7, i, 6.6, 6, 0.8, -7.2
COc1ccc(NC(C)=O)cc1S(=O)(=O)N1CCN(C(=O)c2ccccc2F)CC1
→ 18, 0.7, i, 3.0, -6, -3.0, -2.1
CC(=O)N1CCOc2ccc(S(=O)(=O)N3CCC(C(=O)Nc4ccc(C)cc4C)CC3)cc21
→ -1, 0.64, i, 1.8, 0, -0.1, -0.2
COc1ccc(OC)c(S(=O)(=O)N2CCCC(C(=O)NCc3ccccn3)C2)c1 (stereo unspecified)
→ -1, 0.71, i, 1.7, 2, -3.0, 1.5
O=C(Cn1ncc(Cl)c(Cl)c1=O)NC(=O)NC1CCCCC1
→ 6, ·, i, ·, 10, -2.5, -3.8

(cont.)
Values run as follows: B2AR ag, E coli growth, FGF22 binding, UCH37 DUB inh, ALR inh, HNF4A DNA FP, LANA-H2B inh
COc1ccc(C(=O)Nc2cc3c(cc2C(=O)O)OCCCO3)c(OC)c1
→ -8, 0.7, i, 4.1, ·, 0.0, 9.4
CS(=O)(=O)c1ccc(Cl)c(NC(=O)COC(=O)CNC(=O)c2ccc3ccccc3c2)c1
→ 2, 0.6, i, 2.9, -6, 1.9, 2.7
CCN1C(=O)[C@H]2[C@@H](c3ccc(C)cc3)N3C(=O)N(c4ccccc4)C(=O)[C@@]3(Cc3ccc(Cl)cc3)[C@H]2C1=O
→ -1, ·, ·, 1.4, 3, -3.5, -3.1
COc1ccc(C(CNC(=O)CNC(=O)c2cccc(Cl)c2)N2CCCC2)cc1 (stereo unspecified)
→ -5, 0.61, i, -0.6, -7, 2.4, 5.8
CCc1cc2c(=O)c(-c3nc4ccccc4[nH]3)coc2cc1OC(=O)N1CCOCC1
→ -19, 0.71, ·, 3.8, -7, 0.4, 2.5
CCN(CC)C(=O)CSc1n[nH]c(=S)n1N
→ -4, 0.7, i, 2.1, ·, 0.7, -1.0
CN(C)Cc1c(O)ccc2oc(Cc3ccccc3)cc12
→ 6, 0.65, ·, 2.8, 12, -3.3, -0.9
Cc1ccc(S(=O)(=O)c2ccc(NC(=O)c3c(F)cccc3F)cc2)cc1
→ 5, 0.64, i, -0.8, -12, 0.0, -5.0
COc1ccc(/C=C/C(=O)O)cc1COc1cccc(C)c1
→ 6, 0.67, ·, 2.9, ·, -4.1, -1.8
CC1CC(C)CN(CCCNC(=O)c2ccc3nc(N4CCOCC4)sc3c2)C1 (stereo unspecified)
→ -1, 0.67, i, 4.5, ·, -0.8, 3.8

Following part.
Values run as follows: B2AR ag, E coli growth, FGF22 binding, UCH37 DUB inh, ALR inh, HNF4A DNA FP, LANA-H2B inh
Cc1csc(=Nc2c(C)n(C)n(-c3ccccc3)c2=O)n1Cc1ccccc1
→ 8&4, 0.7&0.72, i, 5.2&2.0, 97*, -1.1&1.9, -2.8
NC(=O)CCC1NC(=S)N(Cc2ccccc2)C1=O (stereo unspecified)
→ -2, 0.72, i, 0.3, -8, -1.9, -0.2
COc1ccc(/C=C(/NC(=O)c2ccco2)C(=O)NCCc2ccccc2)cc1
→ -1, 0.67, i, 2.2, -3, 0.7, -1.8
CSc1ccc(/C=C2\NC(=O)NC2=O)cc1
→ -1, 0.67, i, -1.2, 5, -2.4, -6.9
CCCCN(CCNP(=O)(OCC)OCC)CP(=O)(OCC)OCC
→ 13, 0.78, ·, 3.9, 2, -3.0, -3.3
CCOC(=O)NC1(C(F)(F)F)NC(=O)N(c2cccc(C(F)(F)F)c2)C1=O (stereo unspecified)
→ 4, 0.65, i, 1.5, ·, 2.5, 5.8
C#CCN1C(C)=CC(=O)[C@@H](O)[C@H]1c1ccccc1Br
→ -7, ·, i, ·, ·, -2.3, ·
COc1ccc(S(=O)(=O)N2CCN(C(=O)CSC(=S)N3CCCC3)CC2)cc1
→ 2, 0.72, i, 2.5, -4, 1.1, -2.2
Cc1ccc(N/N=C(/Sc2nnnn2-c2ccccc2)C(=O)c2ccccc2)cc1
→ -2, ·, i, ·, 8, 4.3, 5.3
CN(CC(=O)NCCCN1CCOCC1)S(=O)(=O)c1ccc(Cl)cc1
→ 1, 0.71, i, 0.8, -4, 2.1, -3.0

Additional compounds
Values run as follows: B2AR ag, E coli growth, FGF22 binding, UCH37 DUB inh, ALR inh, HNF4A DNA FP, LANA-H2B inh
CCc1cccc(C)c1N1C(=O)CC(C)(C)CC1=O
→ -4, 0.68, i, 1.9, -12, 1.4, 0.6
O=C(N/N=C/c1ccc(Cl)cc1)C(=O)N1CCCCCC1
→ -7, ·, i, ·, -4, 1.0, -3.7
CC(NCc1cccnc1)c1ccccc1 (stereo unspecified)
→ -2, 0.6, i, 1.6, -10, -2.5, -0.4
CCn1cc(C(=O)NCCc2ccccc2)c(=O)c2cc(F)c(N3CCN(C)CC3)cc21
→ 13, 0.6, ·, -20, -6, 1.2, 2.0
O=C(O)C1CCC(Cn2c(SCc3cc(=O)n4cc(Cl)ccc4n3)nc3ccsc3c2=O)CC1 (stereo unspecified)
→ -3, 0.68, ·, -22, 9, -0.3, -3.1
COc1ccc(C(=O)N/C(=C\c2ccc([N+](=O)[O-])cc2)C(=O)NC(CCSC)C(=O)O)cc1 (stereo unspecified)
→ 4, 0.69, i, 7.4, ?, 3.7, -4.8
Cc1ccc(NC2=NCC(=O)N2CCc2ccccc2)cc1C
→ -2, 0.72, ·, 1.5, 6, -2.8, 3.0
CCOC(=O)C1C(=O)C=C(c2ccc(C)cc2)CC1c1ccccc1 (stereo unspecified)
→ -6, 0.69, i, 4.5, ·, -3.0, 2.9
CCc1ccccc1N(C(=O)c1snc(C(N)=O)c1N)C(C(=O)NCC1CCCO1)c1ccc(C)o1 (stereo unspecified)
→ 10, 0.64, i, -300, -22, 1.1, 4.5
COc1ccc(CCNC(=O)C(C)n2nc(C)c3c(C)n(-c4ccc(C)cc4)nc3c2=O)c(OC)c1 (stereo unspecified)
→ 5, 0.65, i, 5.8, ·, 3.9, 0.1
CNS(=O)(=O)c1ccc2c(c1)oc(=O)c1cc(S(=O)(=O)NC)ccc12
→ 3, 0.68, i, 0.5, 0, 2.7, -3.3

Assay outcomes as filed in PubChem.
